Screening data (PubChem BioAssay)
TRPML1 ag: activates the human TRPML1 channel; 410,000 tested, 0.12% active; activation, % (test concentration not listed); AID 624414; Q9GZU1; TRPML1-expressing cells, Ca2+ dye fluorescence, FDSS; host cell line not named in the record; reference of the full effect not given here; in the data active = activation above about 50%; inconclusive = about 30% to 50%; inactive = below about 30%; note: 0% is about no effect; the text of the record puts the active cut at 80%
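Tetracycline-induced TRPML1-DL cells are seeded and incubated overnight before loading with a no-wash Ca2+ dye and quencher. Agonist activity is taken from the 110 s fluorescence read following compound pin-transfer on an FDSS, before EC80 54-4 challenge.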
CtBP-E1A blk: inhibitors of CtBP/E1A interaction; activity change, % (test concentration not listed); AID 651724; 340,000 tested, 0.49% active; AlphaScreen GST-E1A/His-CtBP binding, 1536-well; hits give low values; control for the full effect not named in the record; in the data active means activity change below about -65%; inconclusive means about -30% to -65%; inactive means above about -30%; note: % is set by controls: 0 for no effect and ±100 for the full control effect; compound concentration not given in the record
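GST-E1A and His-tagged CtBP (125 nM each as 5X stock) were preincubated with pin-transferred compound for 2 h at 37 °C in the dark, then glutathione donor and nickel acceptor beads were added for 1 h before AlphaScreen reading.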
TRPML1 inh: blocks the human TRPML1 channel | TRPML1-inducible cells, Ca2+ dye fluorescence, FDSS; hits give low values; inhibition of EC80 agonist-evoked calcium signal | activity change, negative = inhibition, % (concentration not given with the values) | 390,000 tested, 0.02% active; in the data active means activity change below about -50%; inconclusive means about -30% to -50%; inactive means above about -30%;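 note: stimulus is agonist 54-4 at its EC80 concentration; % is set by controls: 0 for no effect and ±100 for the full control effect; compound concentration not given in the record; the text of the record puts the active cut at -80%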
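Calcium fluorescence in TRPML1-DL cells induced overnight with Tet: a 110 s read after compound pin addition, then a 110 s antagonist read after challenge with 54-4 at 4 uM final (EC80).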
Six1-Eya2 blk: inhibitors of human Six1/Eya2 interaction; 360,000 tested, 0.56% active; Q15475+O00167; AlphaScreen GST-Six1/His-Eya2 binding, biochemical; hits give low values; control for the full effect not named in the record; activity change, % (test concentration not listed); AID 651725; in the data active = activity change below about -65%; inconclusive = about -30% to -65%; inactive = above about -30%; note: % is set by controls: 0 for no effect and ±100 for the full control effect; compound concentration not given in the record
Target sequence (O00167 whole entry, looked up): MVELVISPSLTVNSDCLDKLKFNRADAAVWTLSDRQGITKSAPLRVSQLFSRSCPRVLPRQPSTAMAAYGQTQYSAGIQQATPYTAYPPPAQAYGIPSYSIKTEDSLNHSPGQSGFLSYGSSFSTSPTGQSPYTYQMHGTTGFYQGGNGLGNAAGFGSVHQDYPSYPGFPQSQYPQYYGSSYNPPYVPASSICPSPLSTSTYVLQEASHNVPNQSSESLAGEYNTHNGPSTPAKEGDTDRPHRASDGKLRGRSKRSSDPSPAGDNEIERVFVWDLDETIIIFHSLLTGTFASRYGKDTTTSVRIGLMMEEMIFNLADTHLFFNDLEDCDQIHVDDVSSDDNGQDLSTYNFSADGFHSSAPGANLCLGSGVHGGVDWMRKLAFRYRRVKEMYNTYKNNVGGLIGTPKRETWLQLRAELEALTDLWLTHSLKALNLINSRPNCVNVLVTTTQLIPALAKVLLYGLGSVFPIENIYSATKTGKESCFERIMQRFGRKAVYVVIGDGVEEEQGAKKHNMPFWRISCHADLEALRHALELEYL
Target sequence (Q15475 whole entry, looked up): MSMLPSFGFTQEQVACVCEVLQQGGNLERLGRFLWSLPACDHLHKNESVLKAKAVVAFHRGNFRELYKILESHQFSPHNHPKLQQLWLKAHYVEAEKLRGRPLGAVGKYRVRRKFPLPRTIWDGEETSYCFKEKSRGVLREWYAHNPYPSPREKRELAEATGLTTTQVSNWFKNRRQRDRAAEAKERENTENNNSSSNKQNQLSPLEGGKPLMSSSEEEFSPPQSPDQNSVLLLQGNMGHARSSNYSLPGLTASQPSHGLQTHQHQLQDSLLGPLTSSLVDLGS
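Compounds are tested against tagged Six1 and Eya2 proteins bridged by glutathione donor and nickel acceptor beads; after a one-hour incubation at 37 °C without light, AlphaScreen emission is recorded.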
D2 PAM: potentiates the human D2 dopamine receptor allosterically; AID 624464; 360,000 tested, 0.23% active; DiscoveRx D2 beta-arrestin cells, luminescence, 90 min; 100% = 57 uM dopamine signal; potentiation, % (no concentration beside the values); active = potentiation of 50% or more; inconclusive = 30% to 50%; inactive = 30% or less;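 note: compound concentration not given in the record; tested on top of an EC20 dose of dopamine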
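PathHunter D2 cells, attached overnight at 37 deg C, received compound in DMSO plus dopamine at EC20 (50 nM final) for 90 min at 37 deg C. Beta-arrestin recruitment was read as luminescence after 1 h with detection reagent at ambient temperature.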
TRPV1 potentiator: human TRPV1 potentiation. AID 540277. potentiation, % at 8.33 µM. 320,000 tested, 0.02% active. Q8NER1. TRPV1-expressing cells, Fluo-8 calcium influx, capsaicin EC20 potentiation; host cell line not named in the record; control for the full effect not named in the record; active means potentiation above 80%; inconclusive means 30% to 80%; inactive means below 30%; note: 0% is about no effect
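Fluo-8 calcium influx in TRPV1-expressing cells, kinetic read (ex 480/em 520 nm). Compound added and read 3 min for agonist activity, followed by capsaicin at EC20 final and 2 min further read for enhancement.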
* hit, by the source's call; ? = inconclusive; · = no result given; & = joins results of further samples.

Under each structure: TRPML1 inh	D2 PAM	CtBP-E1A blk	TRPV1 potentiator	Six1-Eya2 blk	TRPML1 ag
(1) CCCCn1nc(C(=O)O)ccc1=O
 : 20	1	4	4	2	0.4
(2) COCCN1C(=O)N[C@@H](c2ccccc2)[C@@H](C(=O)OC)[C@H]1C
 : -11	-4	-11	·	8	-0.3
(3) CC12CN3CC(C)(CN(C1)C3c1cc(Br)ccc1O)C2=O (centres undefined)
 : 0	8	3	-18	1	-0.6
(4) COc1ccccc1-c1cc(C(=O)N/N=C\c2cn(C)nc2C)c2ccccc2n1
 : 8	-12	-17	16	-14	-0.2
(5) O=C(/C=C/c1ccc(-c2ccc(F)cc2)o1)N1CCCC1
 : 25	2	-22	-8	-4	2.9
(6) COc1ccc2c(c1OC)C(=O)OC2Nc1nc(-c2cccc([N+](=O)[O-])c2)cs1 (centres undefined)
 : -20	-10	-16	·	-16	-0.7
(7) CCCN(CCO)C1CCN(CCc2ccccc2)CC1
 : -11	2	10	0	-2	-0.2
(8) C=CCN(CC=C)S(=O)(=O)c1ccc(NC(=S)NC(=O)Cc2ccc(OC)cc2)cc1
 : 48	-11	-3	-9	-1	-0.5
(9) CC(C)c1ccc(/C=C/C(=O)NNC(=O)c2cccnc2)cc1
 : -20	-1	-2	13	2	-0.3
(10) O=c1c2ccccc2nc(SCc2nnc(-c3ccccc3)o2)n1-c1ccccc1
 : 10	5	4	9	0	0.8
(11) O=C(NCc1ccncc1)/C(=C/c1cccc([N+](=O)[O-])c1)NC(=O)c1ccccc1
 : 14	-18	·	-2	4	-0.7
(12) COc1cccc(OCC(=O)Nc2c3c(nn2-c2ccccc2)CS(=O)(=O)C3)c1
 : -15	18	-3	14	-5	-0.3
(13) O=C(Nc1ccccc1)N1CCn2c(nc3ccccc32)C1
 : 8	-13	-3	-5	0	0.7
(14) CCN(C(=O)COC(=O)c1cc(C)n(-c2ccc(F)cc2)c1C)C1CCS(=O)(=O)C1 (centres undefined)
 : -1	12	1	-11	-5	-0.4
(15) COC(=O)c1ccc2c(c1)NC(=O)C(N(CC(C)C)CC(C)C)S2 (centres undefined)
 : -13	-1	9	-5	5	-1.2
(16) COc1ccc(S(=O)(=O)N2CCOCC2)cc1C(=O)NCc1c(C)nn(Cc2ccccc2)c1C
 : 10	-17	7	·	-4	5.5
(17) COc1cccc(-c2cc3nc(NCCOc4ccccc4Cl)n(C)c(=O)c3s2)c1
 : ·	-16	3	·	0	-0.1
(18) COCCCNC(=O)CSc1nc2cc(S(=O)(=O)N3CCCCC3)ccc2o1
 : 18	10	-11	6	8	0.5
(19) CC(=O)Nc1cccc(-c2ccnc3c2CC(C)(C(=O)Nc2cccc(Oc4ccccc4)c2)O3)c1 (centres undefined)
 : ·	-6	-8	·	-10	-0.6
(20) Cc1ccc(C23CC4CC(CC(C(=O)NC(C)C(=O)O)(C4)C2)C3)cc1 (centres undefined)
 : 18	-4	5	-2	10	-0.9
(21) Cc1ccc(N(C(=O)c2ccco2)C2C=CS(=O)(=O)C2)cc1 (centres undefined)
 : -5	-4	5	0	8	-0.5
(22) O=C(Nc1nc(-c2cccnc2)cs1)c1ccccc1Cl
 : -15	-2	-4	2	5	-1.2
(23) CN(C)c1ccc(C=NCC2(O)CCOC(C)(C)C2)cc1 (centres undefined)
 : -5	-8	0	2	2	1.4
(24) CCN1C(=O)/C(=C\N2CCN(c3ccc(F)cc3)CC2)SC1=S
 : 4	-7	5	2	-7	1.0
(25) CCOC(=O)C(=O)N(Nc1ccc(C)cc1)c1ccc(C)cc1
 : -7	-12	-4	-19	-8	1.2
(26) COc1ccc(NC(=O)C2CCN(c3cnccn3)CC2)cc1Cl
 : -11&-15	-26	-11	-11	-9	-0.8&-1.4
(27) C[C@@H]1CN([C@@H](C)CO)S(=O)(=O)c2ccc(-c3ccccc3)cc2O[C@@H]1CN(C)Cc1ccccc1C(=O)O
 : -7	3	7	·	2	-0.3
(28) Nc1nnc(CC(=O)N/N=C/c2cc([N+](=O)[O-])cc(Br)c2O)s1
 : 2	-18	?	2	?	-0.3
(29) C/C(=N\NC(=O)c1c(Br)c(C)nn1C)c1cccc(NC(=O)C2CCC2)c1
 : -3	-1	-16	-8	-6	-0.1
(30) CC1CN(S(=O)(=O)c2cccc(C(=O)N3CCC(C(N)=O)CC3)c2)CC(C)O1 (centres undefined)
 : 9	-9	8	·	5	0.0
(31) Cc1nc([N+](=O)[O-])c(C(=O)O)n1C
 : -13	-1	6	23	7	0.2
(32) COc1cc(/C=N/NC(=O)C(=O)NCc2cccnc2)cc(OC)c1OC
 : -3	-4	-6	-5	-1	0.0
(33) COc1ccc(CCNC(=O)c2cc(COc3c(C)cccc3C)on2)c(OC)c1
 : 3	-16	-1	-2	5	1.7
(34) O=C(CCn1cnc2ccccc2c1=O)Nc1nc(-c2ccc(Br)cc2)cs1
 : 18	-4	-7	?	-7	0.1
(35) CCOc1ccc(N2C(=O)CSC2c2ccncc2)cc1 (centres undefined)
 : 30	6	-9	4	19	0.6
(36) CCCCn1nnc(NC(=O)C(c2ccccc2)c2ccccc2)n1
 : 11	-9	-9	6	-9	0.2
(37) CCO[C@@H]1OC(C(=O)NC2CC2)=C[C@H](c2ccc(C(F)(F)F)cc2)[C@H]1CCCO
 : 2	-2	-22	2	2	-0.2
(38) COc1ccc(CCC(=O)NNC(=S)Nc2cccc(C(C)=O)c2)cc1
 : 37	-16	1	2	9	1.8
(39) CCCc1cc(=O)oc2cc(OCC(=O)NCCCN3CCCC3=O)ccc12
 : -1	-8	0	-14	5	-0.4
(40) O=C(NC1CCCCC1)c1nn2c(C(F)(F)F)cc(-c3ccco3)nc2c1Br
 : 8	-1	-4	-1	2	25
(41) O=C1c2cccc(NCCNCCO)c2C(=O)c2cccc(NCCNCCO)c21
 : 0	-26	-7	·	-71*	0.3
(42) Cc1ccc(CN(C(=O)c2ccccc2C)C2CCS(=O)(=O)C2)o1 (centres undefined)
 : -9	1	-10	-22	0	0.3
(43) CC(=O)NC(CC(=O)NNC(=O)c1cc2ccccc2cc1O)c1ccccc1 (centres undefined)
 : -3	-11	-11	29	-3	-0.2
(44) O=C(C1CCN(S(=O)(=O)c2cccs2)CC1)N1CCCC(C(F)(F)F)C1 (centres undefined)
 : -14	-11	0	-7	2	0.2
(45) CCOCCCn1c(=O)c(NC(=O)c2ccc(OCC)cc2)c2n(c1=S)CCCCC2
 : 6	-8	6	-14	2	-0.2
(46) CC(C)(C)OC(=O)N1CCC[C@H]1C(=O)N/N=C/c1cccc2nccnc12
 : 16	-7	-15	·	-11	1.2
(47) CN(C)c1ccc(C(C(=O)NCC2CCCO2)N(C(=O)c2snc(C(N)=O)c2N)c2ccccc2)cc1 (centres undefined)
 : -7	7	4	10	5	0.0
(48) COc1ccc(NC(=O)C2C3C=CC4(O3)C2C(=O)N(CCN2CCCCC2)C4C(=O)NC2CCCCC2)cc1 (centres undefined)
 : 20	-10	7	4	4	0.4
(49) NC(=O)c1cccc(-c2coc3c(C(=O)NCc4cccnc4)cccc23)c1
 : ·	-6	?	·	?	-0.7
(50) CCN(CC)C(=O)CN(c1cc(Cl)ccc1OC)S(=O)(=O)c1ccc(C)c([N+](=O)[O-])c1
 : 2	-7	-4	-15	-9	3.0
(51) COc1cc(Cl)c(S(=O)(=O)NCc2cccnc2)cc1Cl
 : 9	-15	6	-19	0	0.0
(52) CCOc1ccccc1N1C(=O)CC(N(O)c2ccccc2)C1=O (centres undefined)
 : 1	4	-1	-2	5	-0.9
(53) CN(C)C(CNC(=O)c1ccc(Br)cc1)c1ccco1 (centres undefined)
 : -5	-18	5	5	5	0.0
(54) CCOC(CNC(=O)CN1C(=O)COc2ccc(S(=O)(=O)N3CC(C)CC(C)C3)cc21)OCC (centres undefined)
 : -2	-3	-3	-1	2	0.1
(55) Cc1cc(C)c(NC(=O)C2CC(=O)N(c3ccc4c(c3)OCCO4)C2)c(C)c1 (centres undefined)
 : -11	16	-1	1	-8	0.4
(56) CCOC(=O)c1c(C)nc2sc3c(=O)n(-c4ccc(OC)cc4)cnc3c2c1-c1ccc(OC)cc1
 : -6	2	-2	2	13	1.9
(57) CC(C)(C)OC(=O)N/N=C/c1ccc(N2CCOCC2)s1
 : 4	5	0	-7	1	0.0
(58) O=C(CCN1C(=O)/C(=C/c2ccccc2Cl)SC1=S)Nc1ccccn1
 : 43	-11	·	9	-26	-1.3
(59) Cc1ccsc1-c1ccnc(-n2cccc2)n1
 : -12	-20	-18	-19	-2	0.0
(60) C=C1CCC[C@]2(C)C[C@H]3OC(=O)C(CN4CCCCC4CO)[C@H]3CC12 (some centres undefined)
 : 8	-3	2	3	6	-1.5

Remaining list, next part:
Under each structure: TRPML1 inh	D2 PAM	CtBP-E1A blk	TRPV1 potentiator	Six1-Eya2 blk	TRPML1 ag
(61) COc1ccc(C2=NN(C(=O)CSc3nc4ncc(Cl)cc4[nH]3)C(c3ccco3)C2)cc1 (centres undefined)
 : 9	0	-8	-6	-16	2.2
(62) CCOc1cc(C(=O)NCC(=O)N2CCC3(CC2)NCCc2[nH]cnc23)cc(OCC)c1OCC
 : 0	-13	-1	-6	-3	0.1
(63) CCOC(=O)c1[nH]c(C)c(C(=O)Nc2ccc(Cl)cc2)c1C
 : -9	5	1	-8	-7	0.6
(64) COc1ccc(-c2c(C)n([O-])c(C)c(-c3ccccc3)[n+]2=O)cc1OC
 : ?	-6	8	14	2	0.4
(65) CC(=O)Nc1ccc(C(=O)N2CCCC(c3cc(C(=O)NCc4ccccc4)no3)C2)cc1 (centres undefined)
 : ·	-9	3	·	4	-0.6
(66) O=C(O)CCc1nn2c3ccccc3nc2n(CCN2CCCCC2)c1=O
 : -14	-15	0	3	8	0.1
(67) CC1(NC(=O)CCc2nc3ccccc3c(=O)[nH]2)CCS(=O)(=O)C1 (centres undefined)
 : 6	-8	-2	2	-2	-0.2
(68) COc1ccc(Nc2cc(C(=O)NCCCN3CCOCC3)c3ccccc3n2)cc1OC
 : -13	-10	1	-8	-3	-0.4
(69) O=C(COc1ccc(Cl)cc1Cl)NCCC1=CCCCC1
 : 10	-9	4	-13	14	0.9
(70) Cc1cc(NC(=O)c2noc3c2CCc2ccccc2-3)n(-c2ccccc2)n1
 : 3	3	8	3	3	-0.2
(71) FC(F)(F)c1cccc(Cn2nnnc2-c2ccc(Cl)cc2)c1
 : -4	-3	25	-1	18	3.7
(72) CC(=O)Nc1cccc(NC(=O)COC(=O)CO/N=C(\C)c2ccc3c(c2)OCO3)c1
 : 0	-7	1	0	6	-0.7
(73) COc1ccccc1CN1CC(C(=O)N(Cc2cnn(C)c2)C(C)C)CCC1=O (centres undefined)
 : -8	-7	7	8	9	1.5
(74) CCOC(=O)c1ccc(NC(=S)N(CCCN2CCCC2)Cc2ccco2)cc1
 : -2	-16	3	-16	-14	-0.7
(75) Cc1[nH]c2ccc(C(=O)NCCN3CCOCC3)cc2c1C
 : 5	-16	·	2	-6	0.4
(76) CCN1C(=O)C(C)C=C(C)C=C1C (centres undefined)
 : 3	-3	2	·	-1	0.4
